HSD17B inhib – HSD17B dehydrogenase inhibition; recombinant HSD17B10, NADH fluorescence kinetic; many of its hits are not listed in these tables; Potency, µM (series often up to 57.1 µM), without a hit: at the highest dose activity change, negative = inhibition, most hits filed as inhibitors; actives 7.6% (n = 75,000); Q99714; active means well fitted inhibition curve with a large enough effect; inconclusive means small, poorly fitted or top-dose-only effect; inactive means no such curve, though single readings can be large or run the other way;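 further: the protocol describes HADH2 (HSD17B10) and not the HSD17B4 of the title; nearly all actives have a fitted effect of over 70% in size; most hits overshoot -100% by far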
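20 nM HADH2, pH 9.0 Tris/Tween; cpd preinc 15 min RT; start w/ 1 mM NAD+ + 90 uM b-hydroxybutyryl-CoA; kinetic fluor ex360/em450 q30s x 4 min; delta last-first.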
An asterisk follows results filed as active; ? = inconclusive; [ ] = remark or other dose. On the % scale 0 is the no-effect control and ±100 the full control effect; potency means the concentration at half of the fitted maximal effect.

canonical_smiles,HSD17B inhib
CCCCCn1c2nc3ccccc3nc2c2c(=O)n(CC3CCCO3)c(C)nc21 (stereo unspecified),?
COCCNC(=O)c1cc2c(=O)n(C)c3ccccc3c2n1C,?
CCCN(C(=O)CSc1nnc(-c2ccoc2C)n1N)C1CCS(=O)(=O)C1 (stereo unspecified),6%
Nc1nc(Nc2ccc(Cl)cc2Cl)nc(C(F)(F)F)n1,68%[activator]
COCCNC(=O)C(c1ccc(C)o1)N(C(=O)c1snc(C(N)=O)c1N)c1cccc(C)c1 (stereo unspecified),32µM*
c1csc(Cn2nnnc2CN2CCN(c3nc4ccccc4s3)CC2)c1,-11%
Cc1onc(-c2ccccc2)c1C(=O)N1CCCSC1=Nc1ccccc1,3%
CC(=O)NCc1ccc(-c2csc(N)n2)s1,?
C=CCn1c(CSc2nc3ccccc3s2)nnc1SCC(=O)NCCN1CCOCC1,2%
O=C(NCC1CCCO1)C(C(=O)c1ccc(F)cc1)n1ccccc1=O (stereo unspecified),1%
O=C(CCn1nnc2ccccc21)Nc1nnc(Cc2ccc(F)cc2)s1,10%
COCCCNC(=O)c1ccc2c(=O)n(C3CCCC3)c(=S)[nH]c2c1,-2%
Cc1noc(C)c1COc1cccc(C(=O)OCC(=O)N2CC(=O)Nc3ccccc32)c1,-2%
O=C(O)c1c2c(c(O)c3c1CN(C1CCCCC1)CO3)OCN(C1CCCCC1)C2,?
O=C(CCC1COc2ccccc2O1)NCc1ccco1 (stereo unspecified),-10%
Cc1ccccc1N1C(=O)c2sc3nc4c(c(=O)n3c2C1=O)CCC4,-29%
CCCOC(=O)c1ccc(OCC(O)CN2C(=O)NC(C)(C)C2=O)cc1 (stereo unspecified),-2%
COc1ccc(S(=O)(=O)N2CCCC(C(=O)NCCC3=CCCCC3)C2)cc1 (stereo unspecified),10%
OCc1ccccc1O[C@H]1OC(CO)C(O)C(O)C1O (stereo partly specified),3%
O=C(Cn1nnc(-c2ccccc2F)n1)Nc1ccc(S(=O)(=O)NC2CCCC2)cc1,-3%
COc1ccc(-c2nc(CNS(=O)(=O)c3cc(OC)ccc3OC)cs2)cc1,?
COc1ccc(CCC(=O)N2CCc3ccccc32)cc1,-5%
O=C(O)CSc1cccc2cccc(C(=O)O)c12,-4%
Cc1nc(SCC(=O)Nc2cc(C)on2)c2c(C)c(C)sc2n1,5%
CCCCOC(=O)Cn1c(=N)n(CCN2CCOCC2)c2ccccc21,9%
Nn1c(SCc2nc3ccccc3[nH]2)nnc1C1CCCCC1,-3%
Cc1cc(C)nc(NS(=O)(=O)c2ccc(NC(=O)CCCN3C(=O)c4ccccc4C3=O)cc2)n1,-12%
O=C(Nc1ccc2c(c1)OCO2)C1CC(c2c(F)cccc2Cl)=NO1 (stereo unspecified),6%
Cc1cc(C)cc(N(C(C)C(=O)N2CCCCC2)S(C)(=O)=O)c1 (stereo unspecified),-3%
CN(Cc1nc2ccccc2n1C)S(=O)(=O)c1ccc(Cl)cc1,-10%
CCCCNC(=O)CC1N=C2c3ccccc3N=C(SCC(=O)Nc3ccccc3C)N2C1=O (stereo unspecified),25µM*
O=C(O)c1c2ccccc2cc2ccccc12,25µM*
CCCSc1nc2c(cnn2-c2ccccc2)c(=O)[nH]1,7%
COc1cc(-c2nnc3n2N=C(c2ccccc2)CS3)cc(OC)c1OC,9%
FC(F)(F)c1ccccc1-c1cncnc1NCCN1CCOCC1,0%
Cc1nc(N2CCN(Cc3ccccc3)CC2)nc2c1C(=O)CC(C)C2 (stereo unspecified),-2%
O=C(COC(=O)c1cccnc1Nc1cccc(C(F)(F)F)c1)NCCN1C(=O)CSC1=O,-23%
Cc1cc(Cl)c(S(=O)(=O)NC2CCCCC2)cc1OCC(=O)Nc1nncs1,2%
N#CC1=C(N)Oc2n[nH]c(-c3cccs3)c2C1c1cccnc1 (stereo unspecified),6%
O=C(c1cccc(F)c1)N1CCC2(CCCN(Cc3cc(C(F)(F)F)cc(C(F)(F)F)c3)C2)CC1,-3%
CCN(CC)CCNC(=O)CCn1c(=S)[nH]c2cc3c(cc2c1=O)OCO3,4%
COc1ccc(-n2c(SC)nc(O)cc2=O)cc1,9%
CCOc1cc(C)nc(N2CCN(C3CCCCC3)CC2)n1,-3%
O=c1c2[nH]c3ccc(F)cc3c2ncn1CCN1CCN(Cc2ccccc2)CC1,-3%
COc1cccc(OC)c1C(=O)N1CCN(Cc2ccccc2C)CC1,-2%
COc1ccc(-n2c(O)c(C=NC3CC3)c(=O)[nH]c2=O)cc1,5%
COc1ccc(CCCc2nnc(SCC(=O)Nc3cc(C)c(C)cc3Br)o2)cc1,-3%
O=C(CSc1nnc(CNC(=O)c2cccs2)o1)c1ccccc1,-2%
Cc1cc(C)c(C)c(OCc2nc(-c3cccnc3)no2)c1,5%
O=C(NC1CCCCCC1)c1cc2n(n1)C(C(F)(F)F)CC(c1ccco1)N2 (stereo unspecified),-7%
Cc1ccccc1-c1nnc2s/c(=C\c3ccc(N(C)C)cc3)c(=O)n12,-16%
Cc1cc(C)c(N2C(=NC(=O)CCCC(=O)O)SC3CS(=O)(=O)CC32)c(C)c1 (stereo unspecified),18%
O=C(O)CSc1nc2c(c(=O)[nH]1)CCCC2,6%
O=C(O)NCc1ccccc1 (tested in a mixture with another compound),-3%[11.4 µM]
O=S(NCc1ccccc1)C12CC3CC(CC(C3)C1)C2 (stereo unspecified),1%
Cc1cn(C2CCC(CO)O2)c(=O)[nH]c1=O (stereo unspecified),-4%
COc1ccc(C2CC(c3ccccc3Cl)Nc3ncnn32)cc1OC (stereo unspecified),3%
C#Cc1ccc(C(=O)Nc2cc(C(N)=O)ccc2N2CCOCC2)cc1,0%
COc1ccc(N(CN2C(=O)c3ccccc3C2=O)C(=O)C(C)C)cc1,0%
CCOC(=O)N1CCC(NC(=O)C2CCN(Cc3nc(-c4ccc(CC)cc4)oc3C)CC2)CC1,5%

5 entries picked at random from those above, as already listed:
canonical_smiles,HSD17B inhib
COc1cc(-c2nnc3n2N=C(c2ccccc2)CS3)cc(OC)c1OC,9%
COc1cccc(OC)c1C(=O)N1CCN(Cc2ccccc2C)CC1,-2%
Cc1nc(N2CCN(Cc3ccccc3)CC2)nc2c1C(=O)CC(C)C2 (stereo unspecified),-2%
O=C(c1cccc(F)c1)N1CCC2(CCCN(Cc3cc(C(F)(F)F)cc(C(F)(F)F)c3)C2)CC1,-3%
Cc1cc(Cl)c(S(=O)(=O)NC2CCCCC2)cc1OCC(=O)Nc1nncs1,2%

Going on with the list.
canonical_smiles,HSD17B inhib
Cc1cc(C)cc(OCc2ccc(C(=O)O)o2)c1,8%
Cc1ccc(Nc2nc(CSc3nnnn3-c3ccccc3)cc(=O)[nH]2)cc1,10%
CCN(CC)c1nc2ccccc2n2cnnc12,-8%
COc1ccc(O)cc1,-4%
C=CCNC(=O)c1c(N)n(-c2ccc3c(c2)OCO3)c2nc3ccccc3nc12,-2%
CC(C)CN(C)c1nc(N)c(C(=O)N=C(N)N)nc1Cl,-10%
O=c1c2[nH]c3ccccc3c2ncn1Cc1ccccn1,25µM*
COc1ccc(CCNC(=O)c2ccc(N3CCCC3=O)cc2)cc1OC,2%
CCn1c(=O)c2cc(C(=O)N3CCCC3)sc2c2ccccc21,32µM*
CC1(C)CC(=O)C(C=NCCCn2ccnc2)=C(O)C1,7%
Cc1ccc(C)c2[nH]c(=O)c(CN(CC3CCCO3)C(=O)NC3CCCCC3)cc12 (stereo unspecified),-10%
CCCNC(=O)OC[C@@H]1O[C@H](CCO/N=C\[C@@H](OC)[C@H](C)/C=C\CC(=O)OC)C=C[C@@H]1Oc1ccc(OC)cc1,6%[11.4 µM]
CC1CN(CCC(=O)Nc2ccc3c(c2)CCC3)CC(C)O1 (stereo unspecified),11%
CCC(C(=O)NC1CCCC1)N(C(=O)c1snc(C(N)=O)c1N)c1ccc2c(c1)OCCO2 (stereo unspecified),-18%
COc1cc2c(=O)nc3n(c2cc1OC)C(c1ccccc1)N=C(N)N3 (stereo unspecified),25µM*
CCOC(=O)CCc1c(C)nc(SCC(=O)O)c(C#N)c1C,-4%
O=C(Nc1cccc(S(=O)(=O)C(F)F)c1)c1ccc(S(=O)(=O)N2CCOCC2)cc1,-10%
COc1ccc(CCNC(=O)c2cnn(-c3ccc(C)c(C)c3)c2NC(=O)c2ccco2)cc1OC,3%
CCCCCn1c(CN2CCN(c3cccc(Cl)c3)CC2)nc2c1c(=O)[nH]c(=O)n2C,2%
O=C(NC1CCCc2ccccc21)c1cccnc1 (stereo unspecified),6%
CCCC[C@H]1C[C@@H]1[C@@H]1N(P(=O)(c2ccccc2)c2ccccc2)[C@](CO)(c2ccccc2)CC12CC2,0%
COc1cc2c3cc1Oc1c(OC)c(OC)cc4c1[C@@H](Cc1ccc(O)c(c1)Oc1ccc(cc1)C[C@@H]3N(C)CC2)CN(C)C4,8%[11.4 µM]
Cc1ccc(-c2nc(S(=O)(=O)c3ccc(F)cc3)c(SCC(=O)NCC3CCCO3)o2)cc1 (stereo unspecified),-3%
COC(=O)c1ccc(C(=O)OC)c(NC(=O)c2oc(C)nc2C)c1,-2%
c1ccc(-c2nnc(-c3ccccn3)nn2)nc1,3%
Cc1cc2c(=O)n(Cc3ccco3)c(SCC(=O)NCc3ccco3)nc2s1,-5%
CC1Cc2ccccc2N1C(=O)C1CCCN(S(=O)(=O)c2cccc3cccnc23)C1 (stereo unspecified),0%
COc1cc2c(cc1OC)C(c1ccccc1O)N(C1CC(=O)N(c3ccccc3)C1=O)CC2 (stereo unspecified),-12%
COC(=O)N1CCC2(CCCN(C(c3ccccc3)c3ccccc3)C2)CC1,1%
COc1cccc(/C=N/n2c(CO)nc3ccccc32)c1OC,8%

Entries above that have a cyano group, in the order listed:
canonical_smiles,HSD17B inhib
N#CC1=C(N)Oc2n[nH]c(-c3cccs3)c2C1c1cccnc1 (stereo unspecified),6%
CCOC(=O)CCc1c(C)nc(SCC(=O)O)c(C#N)c1C,-4%

Returning to the listing; the two compounds before the break are reprinted first.
canonical_smiles,HSD17B inhib
COC(=O)N1CCC2(CCCN(C(c3ccccc3)c3ccccc3)C2)CC1,1%
COc1cccc(/C=N/n2c(CO)nc3ccccc32)c1OC,8%
CC(=O)N1CCCc2cc(S(=O)(=O)N(C)Cc3ccccc3)ccc21,1%
CCc1c(C(=O)Nc2ccc(OC)cc2)[nH]c(C)c1C(C)=O,0%
O=C(NCCN1CCOCC1)c1cc(=O)[nH]c2ccc(Br)cc12,-1%
COc1ccc(CCNS(=O)(=O)c2cccc3nsnc23)cc1OC,2%
COc1ccc(CNc2ccnc(-c3ccc(N(C)C)cc3)n2)c(OC)c1,20µM*
CCOC(=O)c1ccccc1NC(=O)c1c(O)c2ccccc2n(CC)c1=O,?
O=C(NCCN1CCCCCC1)C1CCN(S(=O)(=O)N2CCOCC2)CC1,2%
O=C(OCc1ccccc1Cl)c1ccc(-n2cnnc2)cc1,3%
CN1CCN(c2cc(-c3ccccc3Cl)ncn2)CC1,8%
COc1ccccc1NC(=O)NCCCN1CCN(c2cccc(Cl)c2)CC1,3%
CCOC(=O)CCC(=O)Nc1ccc(S(=O)(=O)N2CCCC2)cc1,9%
O=C1CCc2cc(S(=O)(=O)N3CCC(C(=O)NC4CCCCCCC4)CC3)ccc2N1,2%
CC(=O)CCc1c[nH]c2c(C(=O)O)cccc12,8%
CC[C@H]1C2=C3C(CC[C@H]4C(OCc5ccc(F)cc5C(F)(F)F)OC[C@](C)([C@@H]34)N(C(=O)OC(C)(C)C)C2)C2COC(=O)OCC21 (stereo partly specified),6%
O=C(O)[C@@H](O)[C@@H](O)[C@@H](O[C@H]1O[C@@H](CO)[C@@H](O)[C@@H](O)[C@@H]1O)[C@@H](O)CO,2%[25.6 µM]
CCOc1ccc(-c2c(C#N)c(N)nc3c2c(=O)n(C)c(=O)n3C)cc1OC,442%[activator]
COc1ccccc1-c1cc(C(F)(F)F)nc(N2CCOCC2)n1,?
Cn1cc(Cl)c(C(=O)Nc2cccc(Cl)c2Cl)n1,4%
O=C(CCCN=C1NS(=O)(=O)c2ccccc21)OCC(=O)N1CCc2ccccc21,4%
COc1ccc(S(=O)(=O)N(C)CC(=O)NCc2cccnc2)cc1C,2%
N#Cc1ccccc1-c1cncnc1NCc1cccnc1,-1%
Cc1ccc(Cn2c(NC(=O)c3ccco3)nc3ccccc32)cc1,16µM*
COc1ccc(C(=O)c2coc3ccc(O)c(CN(C)C)c23)cc1,4%
Cc1cccc(-n2nc3c(c2NC(=O)c2ccco2)CSC3)c1C,?
CCn1cc(C(=O)Nc2ccc3c(c2)OCCO3)c2cc(OC)c(OC)cc2c1=O,5%
CCC(=O)N1CN(S(=O)(=O)c2ccc(C)cc2)CC1C (stereo unspecified),5%
O=C(CCS(=O)(=O)c1cccc2nonc12)N1CC(=O)N(CCc2ccccc2)C(=O)C1,4%
CCCOC(=O)c1[nH]c2c(c1C)C(=O)CC(c1cc(OC)c(OC)c(OC)c1)C2 (stereo unspecified),7%
Cc1ccc(CCNC(=O)C2CCCN2S(=O)(=O)c2ccc3c(c2)CCC(=O)N3)cc1 (stereo unspecified),8%

Source: PubChem

An excerpt, so the mix of outcomes need not match the whole.
